Bioassay records deposited in PubChem by National Center for Advancing Translational Sciences (NCATS).
gsp ag = qHTS for Agonist of gsp, the Etiologic Mutation Responsible for Fibrous Dysplasia/McCune-Albright Syndrome: qHTS. gsp mutant cells, cAMP HTRF, 30 min; control for the full effect not named in the record. Potency, µM (titrated, usually from 76.9 µM), without a hit: top-dose activation (cAMP increase), hits mostly activators. 0.13% of 340,000 active. AID 624287, 2012; active = well fitted activation curve with a large enough effect; inconclusive = small, poorly fitted or top-dose-only effect, or another doubt; inactive = no such curve, though single readings can be large or run the other way; cell line not stated here;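 also: phosphodiesterase inhibitor Ro 20-1724 added with compounds to block cAMP breakdown; potency is read from the fitted curve at half-maximal effect; nearly all actives have a fitted effect of over 60% in size; about a fifth of the inactives were tested at one dose only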
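Cells stably selected in G418 were plated at 2000/well, grown 16-24 hr, then given compounds in DMSO with the PDE inhibitor […] (300 uM solution added) for 30 min at 37C; cAMP was read by HTRF.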
Menin-MLL FL inh = qHTS Assay for Inhibitors Targeting the Menin-MLL Interaction in MLL Related Leukemias: Competition With Fluorescein Labeled MLL-derived Peptide; Fluorescence polarization, fluorescein-MLL peptide displacement from menin; FP activity change, % at 61.4 µM; 290,000 tested, under 10 active; inconclusive = falling polarisation curve, or a change in total fluorescence; inactive = total fluorescence flat and polarisation flat or rising; no compound was filed as active; the % refers to the polarisation; negative = inhibition;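 also: % of control where 0% means no effect; inhibitors lower the polarisation; unlabelled MLL peptide was the positive control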
ClpP mod = qHTS Assay for Activators of ClpP | ATP-dependent Clp protease proteolytic subunit (Bacillus subtilis (strain 168)), P80244 | purified B. subtilis ClpP, FRET peptide cleavage, 20 min | Potency, µM (series often up to 57.5 µM), for inactives: at the top dose activity change, negative = active | 1.9% of 340,000 active; active = well fitted falling curve with a large enough effect; inconclusive = small, poorly fitted or top-dose-only effect; inactive = no such curve, though single readings can be large or run the other way; also: potency is read from the fitted curve at half-maximal effect; the source files actives as falling curves though it sought activators and does not explain the sign; nearly all actives have a fitted effect of over 65% in size; many hits overshoot -100%
Target sequence (P80244 whole entry, looked up): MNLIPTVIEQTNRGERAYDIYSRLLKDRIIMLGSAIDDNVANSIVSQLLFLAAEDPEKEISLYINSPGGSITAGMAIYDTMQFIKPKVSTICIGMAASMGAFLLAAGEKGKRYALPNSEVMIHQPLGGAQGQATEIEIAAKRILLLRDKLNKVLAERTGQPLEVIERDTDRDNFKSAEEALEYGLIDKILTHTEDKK
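Purified B. subtilis ClpP, 10 microg/mL final in Tris/HCl pH8 with KCl, BSA, glycerol and Tween-20, cleaved an Abz/nitrotyrosine-quenched decapeptide. Fluorescence (ex 320, em 430) was read at 0 and 20 min at room temperature. Delta was normalized to 5.8 microM ADEP and DMSO/no-enzyme controls.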
Sfp PPTase inh = qHTS Assay for Inhibitors of Bacillus subtilis Sfp phosphopantetheinyl transferase (PPTase); 4'-phosphopantetheinyl transferase ffp (Bacillus subtilis), Q9F4F7; Biochemical Sfp PPTase activity, qHTS; Potency, µM, for the others: max response, negative = inhibition, most hits filed as inhibitors; 3.5% of 310,000 active; AID 1490, 2009; active = well fitted inhibition curve with a large enough effect; inconclusive = small, poorly fitted or top-dose-only effect, or another doubt; inactive = no such curve, though single readings can be large or run the other way;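 also: the enzyme is Sfp with the accession as filed and its product quenches rhodamine fluorescence; potency is read from the fitted curve at half-maximal effect; 0% = enzyme reaction without inhibitor and -100% = no enzyme wells; top concentration of the series not given in the record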
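Buffer: 50 mM Hepes-Na pH 7.6, 10 mM MgCl2, 0.01% Nonidet P-40, 0.01% BSA. Enzyme 15 nM, pre-exposed to compound 15 min; substrates then added and fluorescence change tracked over 30 min.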
TRPML1 inh = qHTS for Inhibitors of the Human Mucolipin Transient Receptor Potential 1 (TRPML1); TRPML1-inducible cells, Ca2+ dye fluorescence, FDSS; hits give low values; inhibition of EC80 agonist-evoked calcium signal; 0.02% of 390,000 active; AID 624415, 2012; Mucolipin-1 (Homo sapiens), Q9GZU1; activity change, negative = inhibition, % (no concentration beside the values); in the data active means activity change below about -50%; inconclusive means about -30% to -50%; inactive means above about -30%;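 also: stimulus is agonist 54-4 at its EC80 concentration; % is scaled to controls: 0 for no effect and ±100 for the full control effect; compound concentration not given in the record; the text of the record puts the active cut at -80%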
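Tet-induced TRPML1-DL cells loaded with Ca8 no-wash calcium dye were read kinetically on FDSS. Compound addition was followed by EC80 agonist 54-4 (4 uM final); inhibition was read over 110 s.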
TRPV1 potentiator = HTS Assay for Compounds that Act as Potentiators of the Vanilloid Receptor 1; Transient receptor potential cation channel subfamily V member 1 (Homo sapiens), Q8NER1; 0.02% of 320,000 active; TRPV1-expressing cells, Fluo-8 calcium influx, capsaicin EC20 potentiation; host cell line not named in the record; control for the full effect not named in the record; AID 540277, 2011; potentiation, % at 8.33 µM; active means potentiation above 80%; inconclusive means 30% to 80%; inactive means below 30%; also: 0% is about no effect
Target sequence (Q8NER1 whole entry, looked up): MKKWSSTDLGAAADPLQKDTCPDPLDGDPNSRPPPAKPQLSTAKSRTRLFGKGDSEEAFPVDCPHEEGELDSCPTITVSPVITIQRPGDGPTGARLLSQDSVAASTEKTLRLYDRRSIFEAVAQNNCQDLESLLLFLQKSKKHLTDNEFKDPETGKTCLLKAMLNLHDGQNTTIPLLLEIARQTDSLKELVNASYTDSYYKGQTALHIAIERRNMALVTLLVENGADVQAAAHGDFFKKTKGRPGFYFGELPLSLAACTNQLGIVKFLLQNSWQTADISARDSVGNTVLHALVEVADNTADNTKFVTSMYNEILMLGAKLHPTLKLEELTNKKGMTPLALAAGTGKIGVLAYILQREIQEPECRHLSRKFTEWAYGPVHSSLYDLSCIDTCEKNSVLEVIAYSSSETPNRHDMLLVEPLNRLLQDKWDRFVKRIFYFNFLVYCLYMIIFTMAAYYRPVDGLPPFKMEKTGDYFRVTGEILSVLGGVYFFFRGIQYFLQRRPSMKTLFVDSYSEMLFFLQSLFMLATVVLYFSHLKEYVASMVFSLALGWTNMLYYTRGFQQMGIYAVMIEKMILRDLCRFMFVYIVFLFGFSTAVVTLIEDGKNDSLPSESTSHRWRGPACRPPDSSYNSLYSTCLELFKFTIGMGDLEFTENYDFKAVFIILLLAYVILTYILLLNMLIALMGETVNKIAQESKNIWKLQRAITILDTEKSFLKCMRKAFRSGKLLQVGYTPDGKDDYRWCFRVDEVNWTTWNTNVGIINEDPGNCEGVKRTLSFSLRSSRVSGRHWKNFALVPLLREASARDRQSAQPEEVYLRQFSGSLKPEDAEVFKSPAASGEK
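Fluo-8 calcium influx in TRPV1-expressing cells, kinetic read (ex 480/em 520 nm). Compound added and read 3 min for agonist activity, followed by capsaicin at EC20 final and 2 min further read for enhancement.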
gsp antag = qHTS for Antagonists of gsp, the Etiologic Mutation Responsible for Fibrous Dysplasia/McCune-Albright Syndrome: qHTS; gsp-mutant cells, cAMP HTRF, 30 min; control for the full effect not named in the record; Potency, µM (titrated, usually from 76.9 µM), without a hit: at the top dose activity change, negative = inhibition, hits mostly inhibitors; 0.4% of 340,000 active; active = falling curve of any shape with a large fitted effect; inconclusive = falling curve, mostly with a smaller effect; inactive = flat or rising curve; cell line not stated here;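 also: intracellular cAMP measured with PDE inhibitor Ro 20-1724 present during compound exposure; potency is read from the fitted curve at half-maximal effect; % is scaled to controls: 0 for no effect and ±100 for the full control effect; nearly all actives have a fitted effect of over 65% in size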
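Cells, 2000/well, grown 16–24 h in DMEM 10% FBS with 0.5 mg/ml G418, then compounds plus […] (300 uM addition stock), 30 min at 37C. cAMP read by HTRF (cAMP-d2 and anti-cAMP antibody-K in lysis buffer) after 30 min RT.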
* = called active by the depositor; ? = inconclusive; . = no result given; [ ] = another dose, or the depositor's remark.

Every second line gives: Sfp PPTase inh, Menin-MLL FL inh, TRPML1 inh, gsp ag, TRPV1 potentiator, gsp antag, ClpP mod
> COc1ccc(OC)c(C2CC(=O)c3c([nH]c(C(=O)OCC4CCCO4)c3C)C2)c1 (configuration not stated)
→ 8.7%, -1.0, -9.4, -46.9%[inhibitor], 0.2, 39.8µM*, 2.5%
> CSCC[C@H](NC(=O)OC(C)(C)C)C(=O)N/N=C/c1cccc2nccnc12
→ ?, -0.1, 20.2, -3.9%[15.4 µM], 7.0, -6.6%, -0.8%
> CC(C)C(=O)NC(C)C(c1cccs1)N1CCN(C)CC1 (configuration not stated)
→ 5.4%, 0.1, -13.9, 16.4%, -14.6, 19.2%, -0.4%
> O=C(NC1CC1)C1=C[C@H](c2csc3ccccc23)C[C@H](OCCCCO)O1
→ 7.4%, -0.5, -20.6, ., 19.3, -4.8%, -2.6%
> COc1cccc(-c2noc(-c3ccc(Cl)nc3)n2)c1
→ 1.9%, -0.7, -7.1, -9.8%, -4.2, 4.1%, .
> CC(C)(C)C(=O)Cn1nc(Cl)nc1Cl
→ 7.7%, -2.7, 17.0, 21.4%[15.4 µM], -6.3, 7.0%, .
> O=S(=O)(c1ccccc1C(F)(F)F)N1CCC(n2cnc3ccccc32)CC1
→ 11.3%, 0.1, 6.2, -36.8%, -7.9, ?, 2.5%
> N#CC(C(=O)C1CCCCC1)c1nc2ccccc2[nH]1 (configuration not stated)
→ 19.5%, 0.2, 1.8, 6.2%, -9.8, -13.2%, -1.4%
> O=C(C#Cc1cccc([N+](=O)[O-])c1)c1ccccc1
→ ?, -1.3, ., ., -7.9, ., .
> CCCCNc1c(-c2ccc(OC)c(Sc3ccc(OC)cc3)c2)nc2cnccn12
→ ., ., 36.8, ., ., -2.8%, ?
> O=C(/C=C/c1ccccc1Cl)NC(=S)Nc1ccccc1C(=O)NC1CCCCC1
→ ?, 0.1, -9.5, -1.1%, 1.2, -8.0%, -1.2%
> COc1ccc(-n2nc3c(c2NC(=O)C2CCCC2)CS(=O)(=O)C3)cc1
→ 4.7%, ., 42.5, -7.6%, -4.9, -8.5%, -1.1%
> O=C1CCCS(=O)(=O)c2ccccc21
→ 13.1%, 0.3, 36.4, 2.6%[15.4 µM], 8.8, ., .
> CC1=CCC(C(=O)O)(C(=O)N/N=C/c2cccnc2)C(c2ccccc2)C1 (configuration not stated)
→ 3.6%, 4.8, 4.7, -5.2%[15.4 µM], -20.4, -5.6%, .
> CCOC(=O)C1CCCN(Cc2nc(Cc3cccc(F)c3)no2)C1 (configuration not stated)
→ 16.2%, 6.5, 14.8, 2.5%, -10.6, 8.9%, -1.7%
> Cc1cc2nnn(-c3nnc(-c4ccccc4)c4ccccc34)c2cc1C
→ 4.0%, 2.5, -27.6, 19.0%, -5.1, -6.4%[15.4 µM], -1.7%
> CCc1nn(C(CC)C(=O)NCc2cccs2)c(=O)c2cc3occc3n12 (configuration not stated)
→ 5.5%, 0.0, -10.1, ?, 5.4, -8.5%, -4.4%
> Cc1nc2cc(NC(=O)COc3ccccc3C#N)ccc2n1-c1ccccc1
→ -20.2%, 4.5, 42.6, 5.1%, -4.3, -4.1%, -3.1%
> CCOC(=O)C1CCN(C(=O)/C(C)=C\c2ccccc2)CC1
→ 16.1%, 6.1, -6.9, ?, 3.9, 9.1%, 0.6%
> CC1(C)NC(=O)N(CCCCOc2cccc(C(F)(F)F)c2)C1=O
→ 5.3%, 0.7, -10.6, -31.6%[inhibitor], -15.1, -10.1%, 0.3%
> CCCCCCCCCOC1OC(CO)C(O)C(O)C1NC(C)=O (configuration not stated)
→ 12.5%, 1.8, 25.2, ?, -1.1, 7.0%, 0.3%
> CCN(Cc1nc2ccccc2c(=O)[nH]1)C(=O)c1cccc(OCc2c(C)noc2C)c1
→ ., ., -6.8, -46.8%[inhibitor], -2.7, -6.7%, 0.7%
> CC(C)CCCCCCNC(=S)Nc1ccc(S(=O)(=O)N2CCOCC2)cc1
→ 31.3%[activator], 7.2, -11.9, -36.8%[inhibitor], 5.7, -17.2%, -3.4%
> Cc1cc(S(=O)(=O)Nc2c(C(=O)O)[nH]c3ccccc23)ccc1F
→ 8.6%, 5.7, 20.8, 12.0%, -2.5, 5.5%, -1.4%
> O=C(Nc1cccc(Cl)c1)C1COc2ccccc2O1 (configuration not stated)
→ 14.4%, 3.1, 15.1, 9.6%, -7.5, 13.9%, 0.5%
> O=C(NCc1ccc(F)cc1)c1cnc2sccn2c1=O
→ -12.1%, -0.4, -7.3, ?, -6.3, 9.6%, 4.2%
> O=C(N/N=C/c1cccnc1)c1cc(Br)ccc1O
→ 6.7%, 3.4, 3.6, -17.0%, 8.3, -14.9%, -2.6%
> O=C(c1cccc(S(=O)(=O)N2CCc3ccccc32)c1)N1CCOCC1
→ ., ., 17.0, -39.2%[inhibitor], ., 4.0%, -1.2%
> O=C(CP(=O)(c1ccccc1)c1ccccc1)Nc1nc2ccccc2s1
→ 8.7%, 3.1, -5.5, 1.7%[15.4 µM], 4.8, -15.3%, -4.2%
> CC1CCC2C(C1)Nc1c(C(=O)O)cccc1C2(C)C (configuration not stated)
→ -8.1%, 1.4, 8.7, 7.2%[15.4 µM], 11.1, -30.0%, .
> O=C(Cc1ccc(-n2c(=O)c3ccccc3n(Cc3ccccc3F)c2=O)cc1)NCC1CCCO1 (configuration not stated)
→ -2.5%, 0.8, -19.7, -13.2%, -5.8, 3.5%, -18.6%
> Cc1cc(C2C(=O)C(C(=O)c3ccc(Cl)cc3)C(=O)CC2(C)C)on1 (configuration not stated)
→ 12.0%, 1.5, 22.9, -43.6%[inhibitor], -6.1, -3.6%, -2.1%
> O=S(=O)(NCCc1cccs1)c1ccc(Br)cc1
→ 5.7%, -3.3, 1.2, -3.2%, -8.8, 3.4%, .
> CC(=O)Nc1ccc(S(=O)(=O)Oc2cccc(N3C(=O)C4CC=CCC4C3=O)c2)cc1 (configuration not stated)
→ 0.9%, -2.7, 3.9, 3.1%, 1.3, ?, -1.4%
> COCCCn1c(C(=O)NC2CCCCC2)cc2c(=O)n3cccc(C)c3nc21
→ ., ., 1.4, 27.2%, ., ., 3.9%
> COc1ccc(CN(C)CC(=O)Nc2ccc(Cl)cc2C(F)(F)F)c(OC)c1
→ ?, 0.8, -14.4, -25.4%, 0.5, -11.4%, 1.6%
> Cn1c(=O)oc2cc(S(=O)(=O)N3CCN(c4ccccn4)CC3)ccc21
→ 2.9%, 0.7, 29.5, -64.5%[inhibitor], -0.9, 5.7%, -8.2%
> O=C(Nc1ccccc1)c1nc[nH]c1C(=O)NCCCCCCNC(=O)c1[nH]cnc1C(=O)Nc1ccccc1
→ ., ., -19.2, 4.3%, ., 1.1%, -13.6%
> CCOC(=O)c1cccc(NC(=O)CSc2nnc(COc3ccccc3C)o2)c1
→ 6.9%, -0.7, -6.6, -6.2%, -3.1, 0.4%, 0.5%
> Cc1cc(C)c(S(=O)(=O)N(C)CC(=O)NC2CCCC2)c(C)c1
→ 13.1%, 0.5, -20.2, -0.6%, -15.7, -12.0%, -1.0%
> Cc1ccc(-c2nnc(Cc3ccc([N+](=O)[O-])cc3)o2)cc1
→ -0.4%, 3.0, 14.7, 11.0%, -27.1, -0.7%, -1.6%
> CCC(C)[C@H](N)c1cn([C@@H](Cc2cc3ccccc3[nH]2)C(=O)N2CCNCC2)nn1 (some centres not stated)
→ 12.0%, -1.0, 24.5, 27.1%, -6.4, 11.3%, 0.6%
> Cc1nnc2n(Cc3ccccc3)c(=O)c3c4c(sc3n12)CCCC4
→ 9.7%, 4.1, ., ., -4.2, ., .
> Cc1c(NC(=O)C(C)OC(=O)c2cc3c4ccccc4n(C)c3s2)c(=O)n(-c2ccccc2)n1C (configuration not stated)
→ ?, 2.2, 0.9, -8.9%, 2.3, 2.4%, ?
> Cc1cc(C(=O)CCl)c(C)n1CCc1ccc(Cl)cc1
→ -29.7%, -1.8, 19.6, ?, -8.2, 1.7%, .
> COc1ccc(OC)c(NC(=O)C2COc3ccccc3O2)c1 (configuration not stated)
→ -3.4%, 2.6, 6.6, -26.0%, -8.3, -11.4%, -2.1%
> COc1ccc(-n2c(-c3ccc(Cl)cc3Cl)n[nH]c2=S)c(OC)c1
→ 15.6%, -3.8, 2.2, -3.3%, 6.6, -19.7%, .
> Cc1cc2nccc(-c3ccco3)n2n1
→ -22.2%, 0.4, 6.4, 7.4%, -2.5, 11.6%, 1.5%
> CCOCc1cc(=O)[nH]c(SC)n1
→ -8.2%, -2.9, 28.5, -20.6%, 4.4, 2.9%, 0.3%
> CC1CCN(c2nc3c(c(=O)[nH]c(=O)n3C)n2CC(C)CSc2nnnn2-c2ccccc2)CC1 (configuration not stated)
→ 18.8%, 1.2, 6.0, -10.3%, -4.8, -17.7%, -6.0%
> COC/C=C/C1=CC2=CC(=O)C(C)(OC(=O)c3cnc4ccccc4n3)C(=O)C2=CN1Cc1ccccc1 (configuration not stated)
→ -26.0%, -3.8[11.7 µM], -9.3, ., ?, -24.4%, 0.3%
> Cc1cccn2c(=O)c(/C=C(\C#N)S(=O)(=O)c3ccccc3)c(N3CCCCC3)nc12
→ 0.7%, ?, 32.9, -19.9%, 8.9, -23.0%, -1.9%
> CCCCC[C@H](O)/C=C/[C@@H]1[C@@H](C/C=C\CCCC(=O)OC)[C@@H](O)C[C@H]1O
→ 25.1µM*, -0.9, 13.1, ., -6.4, -3.7%, 0.2%
